High-throughput results as filed in PubChem.
D2 potentiator: positive allosteric modulators of human D2 dopamine receptor | DiscoveRx D2 beta-arrestin cells, luminescence, 90 min; 100% = 57 uM dopamine signal | potentiation, % (test concentration not listed) | actives 0.23% (n = 360,000); active = potentiation of 50% or more; inconclusive = 30% to 50%; inactive = 30% or less;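 further: compound concentration not given in the record; tested on top of an EC20 dose of dopamine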
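D2 cells co-treated with compound plus 50 nM dopamine (EC20) for 90 min at 37 deg C to detect potentiation. Beta-arrestin recruitment was read as enzyme-fragment luminescence after 1 h at ambient temperature. Full response was set by 57 uM dopamine.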
Six1-Eya2 inh: Six1/Eya2 interaction inhibition. activity change, % (no concentration beside the values). actives 0.56% (n = 360,000). Q15475+O00167. AlphaScreen GST-Six1/His-Eya2 binding, biochemical; stronger effect = lower value; control for the full effect not named in the record; in the data active = activity change below about -65%; inconclusive = about -30% to -65%; inactive = above about -30%; further: on the % scale 0 is the no-effect control and ±100 the full control effect; compound concentration not given in the record
Target sequence (O00167 whole entry, looked up): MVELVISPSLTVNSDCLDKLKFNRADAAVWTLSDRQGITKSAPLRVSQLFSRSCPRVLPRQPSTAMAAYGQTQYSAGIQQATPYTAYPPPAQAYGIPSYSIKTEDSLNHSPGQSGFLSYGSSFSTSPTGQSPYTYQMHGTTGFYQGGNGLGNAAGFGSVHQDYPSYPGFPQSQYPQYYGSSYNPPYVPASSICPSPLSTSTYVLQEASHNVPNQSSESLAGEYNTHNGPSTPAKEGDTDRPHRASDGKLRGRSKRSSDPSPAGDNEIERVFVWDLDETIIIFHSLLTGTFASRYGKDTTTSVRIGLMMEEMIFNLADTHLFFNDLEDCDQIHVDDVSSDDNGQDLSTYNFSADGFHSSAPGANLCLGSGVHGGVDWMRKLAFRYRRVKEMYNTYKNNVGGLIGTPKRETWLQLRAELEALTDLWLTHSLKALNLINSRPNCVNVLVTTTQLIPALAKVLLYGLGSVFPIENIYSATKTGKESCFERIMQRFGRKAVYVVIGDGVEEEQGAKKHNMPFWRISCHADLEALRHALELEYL
Target sequence (Q15475 whole entry, looked up): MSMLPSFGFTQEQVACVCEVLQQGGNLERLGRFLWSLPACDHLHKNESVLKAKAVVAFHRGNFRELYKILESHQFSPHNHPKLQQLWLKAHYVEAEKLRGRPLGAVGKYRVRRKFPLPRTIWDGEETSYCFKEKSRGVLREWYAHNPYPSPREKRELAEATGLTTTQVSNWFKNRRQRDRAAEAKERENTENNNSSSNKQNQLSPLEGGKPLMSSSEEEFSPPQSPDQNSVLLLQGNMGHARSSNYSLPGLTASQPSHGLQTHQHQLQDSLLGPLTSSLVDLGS
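GST-Six1 + His-Eya2 (5X stock: 250/500 nM); Tris pH 8.0, 300 mM NaCl, 0.05% BSA, 0.02% Tween 20; GSH donor/Ni acceptor beads; 1 h 37 °C dark; AlphaScreen readout.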
D2 agonist: agonists of human D2 dopamine receptor (beta-arrestin) | actives 0.084% (n = 360,000) | activation, % (no concentration beside the values) | P14416 | DiscoveRx PathHunter D2 beta-arrestin, luminescence, 90 min; 100% = 57 uM dopamine signal; in the data active = activation above about 40%; inconclusive = about 15% to 40%; inactive = below about 15%; further: compound concentration not given in the record; the text of the record calls up to 30% inactive
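Agonist mode: compounds alone added to overnight-plated D2 PathHunter cells for 90 min at 37 C, with 57 uM final dopamine (EC100) defining full response. Beta-arrestin recruitment detected by chemiluminescent reagent, read after 1 h at ambient temperature.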
TRPML1 ag: agonists of human TRPML1 channel; Q9GZU1; TRPML1-expressing cells, Ca2+ dye fluorescence, FDSS; host cell line not named in the record; reference of the full effect not given here; activation, % (concentration not given with the values); actives 0.12% (n = 410,000); in the data active = activation above about 50%; inconclusive = about 30% to 50%; inactive = below about 30%; further: 0% is about no effect; the text of the record puts the active cut at 80%
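In this qHTS format, compounds were pin-transferred onto Ca8-dye-loaded TRPML1-DL cells induced with Tet overnight, and intracellular Ca2+ fluorescence was recorded kinetically for 110 s after a 10 s baseline. A subsequent 4uM final 54-4 (EC80) addition followed by a second 110 s read served as the antagonist phase.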
PINK1 expr mod: modulators of PINK1 expression. PINK1 immunofluorescence, high-content cytometry, 24 h. Potency, µM (top dose mostly 76.6 µM), for inactives: at the top dose activation (PINK1 increase), actives largely listed as activators. actives 0.2% (n = 410,000). AID 624263; active = well fitted activation curve with a large enough effect; inconclusive = small, poorly fitted or top-dose-only effect; inactive = flat fitted curve, though single readings scatter; cell line not stated here;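 further: potency means the concentration at half of the fitted maximal effect; % of control where 0% means no effect; nearly all actives have a fitted effect of over 65% in size; a mitochondrial uncoupler was the plate control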
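Cells are seeded, rested 12 hours, then given compound at five concentrations or DMSO for 24 hours. After fixation, blocking and antibody staining, PINK1 amount and mitochondrial localization are scored; CCCP serves as control.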
CtBP-E1A inh: blocks the CtBP interaction with E1A | actives 0.49% (n = 340,000) | AlphaScreen GST-E1A/His-CtBP binding, 1536-well; stronger effect = lower value; control for the full effect not named in the record | activity change, % (test concentration not listed); in the data active means activity change below about -65%; inconclusive means about -30% to -65%; inactive means above about -30%; further: on the % scale 0 is the no-effect control and ±100 the full control effect; compound concentration not given in the record
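In 5 uL wells, 23 nL compound meets equimolar GST-E1A and His-CtBP (5X stock 125 nM each) for 2 h, 37 °C. Beads (5X, 50 ug/mL) then 1 h, 37 °C, dark.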
Starred values were filed as active, the others as inactive; . = not tested or not shown; & = joins results of further samples; [ ] = another dose, or the depositor's remark.

SMILES | D2 potentiator | Six1-Eya2 inh | D2 agonist | TRPML1 ag | PINK1 expr mod | CtBP-E1A inh
Clc1ccc(SCCCCN2CCOCC2)cc1 | -30 | -1 | 0.3 | 0.2 | 1.9% | 19
Cc1ccc(OCCNC(=O)CNC(=O)c2ccc3c(c2)OCO3)cc1 | 1 | 1 | 3.4 | 4.6 | -3.0% | 3
Cc1ccc(-c2nc(CS(=O)CC(=O)N3CCN(c4ccccc4)CC3)c(C)o2)cc1 (stereo unspecified) | -11 | -5 | -1.2 | 0.4&0.5 | 2.2%&2.0% | -5
N#CCSc1ccccc1NC(=O)COC(=O)C1CCN(C(=O)c2ccc(Cl)cc2)CC1 | -4 | -1 | -2.3 | -0.5 | -0.2% | -1
CCN(CC)c1nc(N)nc(N(c2ccccc2)c2ccccc2)n1 | -2 | -2 | -1.7 | -1.5 | 2.9% | 5
ClCc1c2ccccc2cc2ccccc12 | -12 | 43 | -7.0 | 0.8 | 3.2% | 2
Cc1ccc(S(=O)(=O)NCC(=O)N(CC(=O)NCc2ccco2)Cc2ccccc2)cc1 | 1 | 3 | -1.2 | -1.0 | -0.6% | 2
COC(=O)c1ccc2c(c1)NC(=O)C(N1CCCCC1)S2 (stereo unspecified) | -3 | 3 | -0.1 | -0.5 | 4.2%[38.3 µM] | 2
Cc1ccc(-c2cn(-c3ccccc3)c(SCC(=O)NC3CCS(=O)(=O)C3)n2)cc1C (stereo unspecified) | -10 | -18 | -2.9 | 0.1 | 0.1% | -18
C=CCn1c(-c2cccc(OC)c2)nc2nc3ccccc3nc21 | 1 | -10 | -0.3 | 0.3 | . | 0
CCc1cc2ccccc2nc1Cl | -9 | 2 | 2.5 | -0.2 | 0.2% | 4
CCOC(=O)c1c(O)cc(OC)cc1CCc1ccccc1 | -3 | 49 | -2.2 | -0.9 | 17% | 40
N#Cc1ccccc1S(=O)(=O)N1CCN(C(=O)C2CC(=O)N(c3ccc4c(c3)OCCO4)C2)CC1 (stereo unspecified) | -10 | 4 | -2.0 | 1.1 | -0.1% | -2
CCN=C1SC(CC(N)=O)C(=O)N1CC (stereo unspecified) | 2 | 5 | -19 | 0.6 | 1.5% | 3
OC(COc1ccc(CNCCc2ccccc2F)cc1)CN1CCCCC1 (stereo unspecified) | -19 | 1 | -1.4 | 0.8 | 0.9% | .
Cc1cccc(NC(=O)CC2c3ccccc3Oc3ccccc32)c1 | -3 | 6 | 3.0 | 0.4 | 0.3% | 3
CCC(C)C(NC(=O)C(C)NC(=O)CNC(=O)CNC(=O)OCc1ccccc1)C(=O)OC (stereo unspecified) | 2 | -2 | -1.3 | -0.1 | 0.9% | -2
NC(=O)c1[nH]cnc1N | 1&-5 | -1&-13 | -1.1&4.1 | 0.3&1.1 | 1.6%&0.6% | -24&-5
Cc1noc(C)c1C(=O)OCC(=O)Nc1ccccc1SCC#N | 2 | 14 | 3.3 | 4.8 | -0.1% | 0
COc1ccc(N2CCN(CC(=O)NC(=O)NCc3ccco3)CC2)cc1 | 0 | -5 | -1.0 | 1.1 | 0.2% | 0
O=S(=O)(NCc1ccccc1)c1ccc(F)cc1Br | -4 | 4 | -1.1 | 3.6&-0.9 | 1.7% | 7
O=C(O)c1ccccc1N=Nc1c(O)[nH]c2ccc([N+](=O)[O-])cc12 | -4 | -72* | -5.1 | 0.4 | 2.5% | -85*
c1ccc(-c2nnc(SCc3ccncc3)o2)cc1 | -19 | 7 | -2.5 | -0.2 | -0.2% | 1
CCOc1ccc(NC(=O)COC(=O)CN2CCCCCC2=O)cc1 | -10 | -5 | -1.3 | -0.5 | 1.1% | -1
Cc1noc(C)c1COc1cccc(C(=O)NCc2ccccc2Cl)c1 | 3 | 8 | -3.3 | 0.1 | -0.9% | -4
O=C(c1ccco1)N1CCN(C(c2cccs2)c2nnnn2C2CCCC2)CC1 (stereo unspecified) | -8 | -14 | 0.8 | 0.5 | 2.7% | -2
COc1ccc(NC(=S)N/N=C2/CCCc3c(C)cc(C)cc32)cc1 | -2 | -3 | 0.7 | -0.6 | 10% | 5
O=C(CN1C(=O)C(=O)N(C2CCCC2)C1=O)Nc1ccc([N+](=O)[O-])cc1 | -1 | -8 | -6.6 | 0.2 | -0.1% | 7
CN1CCC(=NNC(=O)COc2ccc(Cl)cc2)CC1 | 4 | -6 | 6.6 | -0.6 | -0.4% | 0
CC1CCC/C(=C\c2ccc(O)cc2)C1=O (stereo unspecified) | 3 | 1 | 1.0 | 2.7 | 0.4% | .

2 of the compounds above, in CSV form.
Structure,D2 potentiator,Six1-Eya2 inh,D2 agonist,TRPML1 ag,PINK1 expr mod,CtBP-E1A inh
COc1ccc(NC(=S)N/N=C2/CCCc3c(C)cc(C)cc32)cc1,-2,-3,0.7,-0.6,10%,5
CCOC(=O)c1c(O)cc(OC)cc1CCc1ccccc1,-3,49,-2.2,-0.9,17%,40

Sorted by the number under CtBP-E1A inh (low to high): 7 of the compounds above.
Compound	D2 potentiator	Six1-Eya2 inh	D2 agonist	CtBP-E1A inh
Cc1noc(C)c1COc1cccc(C(=O)NCc2ccccc2Cl)c1	3	8	-3.3	-4
O=C(c1ccco1)N1CCN(C(c2cccs2)c2nnnn2C2CCCC2)CC1 (stereo unspecified)	-8	-14	0.8	-2
N#CCSc1ccccc1NC(=O)COC(=O)C1CCN(C(=O)c2ccc(Cl)cc2)CC1	-4	-1	-2.3	-1
CN1CCC(=NNC(=O)COc2ccc(Cl)cc2)CC1	4	-6	6.6	0
COC(=O)c1ccc2c(c1)NC(=O)C(N1CCCCC1)S2 (stereo unspecified)	-3	3	-0.1	2
CCN=C1SC(CC(N)=O)C(=O)N1CC (stereo unspecified)	2	5	-19	3
CCN(CC)c1nc(N)nc(N(c2ccccc2)c2ccccc2)n1	-2	-2	-1.7	5

Carrying on:
SMILES | D2 potentiator | Six1-Eya2 inh | D2 agonist | TRPML1 ag | PINK1 expr mod | CtBP-E1A inh
Cc1occc1-c1nnc(SCC(=O)Nc2ccc3c(c2)OCO3)n1CC1CCCO1 (stereo unspecified) | -13 | -2 | -1.6 | -0.2 | -1.3% | -1
O=C(CCCOc1ccccc1)N1CCN(c2ccccc2)CC1 | -23 | -14 | -1.5 | 0.4 | -2.1% | -7
O=C(OC(C(=O)NC1CCCCC1)c1ccccc1)c1ccco1 (stereo unspecified) | -5 | 6 | -1.8 | -1.4 | 3.3% | 5
COc1ccc(/C=C/C(=O)NC(=S)N2CCCCC2)cc1OC | 2 | 2 | 1.8 | -0.2 | -0.6% | 1
O=C(N/N=C/c1ccncc1)c1ccc(-n2cccc2)cc1 | -27 | -4 | -2.9 | -0.7 | 1.7% | -6
CC1CCC(C(C)C)C(OCC(O)CN2CCN(Cc3ccccc3)CC2)C1 (stereo unspecified) | -26 | -3 | 2.7 | 1.2 | -3.6% | -12

Quoted at random: four compounds from above
SMILES | D2 potentiator | Six1-Eya2 inh | D2 agonist | TRPML1 ag | PINK1 expr mod | CtBP-E1A inh
COc1ccc(/C=C/C(=O)NC(=S)N2CCCCC2)cc1OC | 2 | 2 | 1.8 | -0.2 | -0.6% | 1
O=C(OC(C(=O)NC1CCCCC1)c1ccccc1)c1ccco1 (stereo unspecified) | -5 | 6 | -1.8 | -1.4 | 3.3% | 5
O=C(CCCOc1ccccc1)N1CCN(c2ccccc2)CC1 | -23 | -14 | -1.5 | 0.4 | -2.1% | -7
CC1CCC(C(C)C)C(OCC(O)CN2CCN(Cc3ccccc3)CC2)C1 (stereo unspecified) | -26 | -3 | 2.7 | 1.2 | -3.6% | -12
